Screening data: PubChem BioAssay, several laboratories
Vif TR-FRET = inhibitors of Vif binding to APOBEC3G peptide, primary screen, biochemical, TR-FRET, GST-Vif 1-94, biotin-A3G peptide, dose response retest (AID 1117319); Virion infectivity factor (Human immunodeficiency virus type 1 group M subtype B (isolate …; TR-FRET GST-Vif / biotin-A3G peptide binding; higher % means a stronger effect; test concentration not given here; strong numbers were not always called active; inhibition, %; hits with a dose series show IC50 in µM; actives 0.57% (n = 260,000);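 active = above the screen mean plus three standard deviations and confirmed in dose response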;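 also: Vif residues 1-94 fused to GST binding biotinylated APOBEC3G peptide 110-148; 0% = full assay without inhibitor and 100% = GST in place of GST-Vif; retest series ran down from 100 µM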
MLL AF4-AF9 inh = inhibitors of AF4 peptide binding to AF9, primary screen, biochemical, AlphaScreen, biotin-AF4 peptide, FLAG-AF9, single point | Protein AF-9 (Homo sapiens), P42568 | inhibition, % at 10 µM | actives 0.47% (n = 350,000) | AID 651704, 2012;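 active = every replicate reaching a set inhibition limit, whatever the replicate mean, cut at about 25% in these data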;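 also: 0% = plate neutral control median and 100% = total signal loss; the record names both 10 and 1 µM as test concentration; the first replicate is given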
Target sequence (P42568 whole entry, looked up): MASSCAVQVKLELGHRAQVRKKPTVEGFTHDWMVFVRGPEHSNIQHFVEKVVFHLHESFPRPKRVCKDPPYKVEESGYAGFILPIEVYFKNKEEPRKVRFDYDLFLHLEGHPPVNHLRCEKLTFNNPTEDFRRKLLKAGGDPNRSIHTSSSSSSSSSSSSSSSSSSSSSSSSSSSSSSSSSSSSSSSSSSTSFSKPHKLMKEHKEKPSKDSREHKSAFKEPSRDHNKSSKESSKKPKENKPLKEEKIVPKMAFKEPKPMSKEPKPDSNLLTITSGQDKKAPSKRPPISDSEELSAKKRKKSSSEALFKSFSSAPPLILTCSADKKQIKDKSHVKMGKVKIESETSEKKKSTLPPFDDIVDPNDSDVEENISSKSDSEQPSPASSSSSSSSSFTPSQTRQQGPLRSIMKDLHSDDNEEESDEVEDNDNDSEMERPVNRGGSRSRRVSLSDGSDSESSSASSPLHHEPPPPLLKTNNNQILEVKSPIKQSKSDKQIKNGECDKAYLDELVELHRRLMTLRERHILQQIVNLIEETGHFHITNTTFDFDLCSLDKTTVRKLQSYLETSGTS
* marks the source's active call; other numbers are inactive results; & = joins results of further samples.

SMILES	Vif TR-FRET	MLL AF4-AF9 inh
COc1cccc(NC(=O)COC(=O)C2CC(=O)N(c3ccc(C)cc3)C2)c1 (centres undefined)	-5%	0.1
COC1=CC(=O)OC(c2ccc(OC)cc2)C1 (centres undefined)	-2%	-1.5
Cc1c(Cl)ccc2c(C(O)CBr)cc(-c3ccccc3)nc12 (centres undefined)	-3%	-3.0
C[C@H](NC(=O)C1CCN(S(=O)(=O)c2ccccc2)CC1)C(=O)NC1CC1	-9%	-4.0
CCOc1ccc2oc(C(=O)NCC(c3ccco3)N(C)C)c(C)c2c1 (centres undefined)	2%	6.0
COc1ccc2[nH]c3c(c2c1)CCN1C(=O)C(CC(=O)NCCN2CCOCC2)C[C@H](C(=O)N2CCOCC2)[C@@]31C (some centres undefined)	-4%	0.2
Cc1cccc(NC(=O)COC(=O)CN2C(=O)C3CCCCC3C2=O)c1C (centres undefined)	15%	0.2
COc1ccc(-n2cnc3c(N)nc(N)nc32)cc1	-10%	-1.1
Cn1c(=O)c2c(-c3ccccc3)n(-c3ccccc3N)cc2n(C)c1=O	-6%	-3.3
CC(c1ccccn1)C(C)(O)C(C)c1ccccn1 (centres undefined)	-4%	6.6
Cc1ccc(N(O)C(C)(C)C)cc1	-6%	6.7
Cc1ccccc1CN(C)C[C@@H]1OCc2cnnn2CCCC(=O)N([C@@H](C)CO)C[C@H]1C	-1%	0.8&-6.5
CC1CCC(C(O)(C(=O)O)C2CCCCC2)CC1C (centres undefined)	5%	-2.0
CC[C@]12c3[nH]c4ccc(Cl)cc4c3CCN1C(=O)[C@@H](CC(=O)NCCN1CCOCC1)C[C@@H]2C(=O)N1CCN(C(=O)c2ccco2)CC1	-3%	-0.4
OCCN1CCN(CCO)C1=S	-2%	-1.9
COC(=O)c1c[nH]c2c1-c1cc(C(=O)OCc3ccccc3)n(S(=O)(=O)c3ccc(C)cc3)c1C(=O)C2=O	6%	1.2
O=C1NC(=O)C(=Cc2ccccc2)N1	-4%	2.7
O=C1N[C@@H](Cc2ccccc2)C(=O)N2CCCC12 (some centres undefined)	-5%	4.2
CC(Nc1ccc(Br)cc1)C(=O)Nc1cccc(S(=O)(=O)N2CCOCC2)c1 (centres undefined)	3%	-4.7
CN(NC(=O)NN(C)C(=O)c1ccccc1)C(=O)c1ccccc1	-2%	0.8
CCOC(=O)N1CCc2cc(OC)c(OC)c3c2c1cc1cc(OC)c(OC)cc13	3%	17
Nc1ccc(S(=O)(=O)Nc2nccs2)cc1N=Nc1ccccc1[N+](=O)[O-]	12%	1.1
O=C(COC(=O)/C=C/c1cccc(C(F)(F)F)c1)NC(=O)NC1CCCC1	0%	0.0
O=C(Nc1cccc(S(=O)(=O)NC2=NCCC2)c1)c1cc(F)c(F)c(F)c1F	1%	0.6
O=[N+]([O-])c1ccc(C=NNC(=S)Nc2ccc(F)cc2)cc1	-6%	0.2
C[C@@H]1CN([C@@H](C)CO)S(=O)(=O)c2ccc(C#CC(C)(C)O)cc2O[C@H]1CN(C)C(=O)C1CCCCC1	1%	0.6&4.3
Cn1c(N)c(C(=O)COC(=O)Cc2ccc(F)cc2)c(=O)n(C)c1=O	-4%	0.8
O=C(Cn1cc(F)c(=O)[nH]c1=O)c1ccco1	4%	-1.3
Cc1ccc(CNC(=O)c2ccc(S(=O)(=O)N3CCCCC3)cc2)cc1	-1%	-5.1
C[C@H](CO)N1C[C@H](C)[C@@H](CN(C)Cc2ccc(Oc3ccccc3)cc2)OCc2cnnn2CCCC1=O	-2%	0.8&2.8

18 compounds from above, sorted by number of heavy atoms, largest number first.
SMILES	Vif TR-FRET	MLL AF4-AF9 inh
CC[C@]12c3[nH]c4ccc(Cl)cc4c3CCN1C(=O)[C@@H](CC(=O)NCCN1CCOCC1)C[C@@H]2C(=O)N1CCN(C(=O)c2ccco2)CC1	-3%	-0.4
COc1ccc2[nH]c3c(c2c1)CCN1C(=O)C(CC(=O)NCCN2CCOCC2)C[C@H](C(=O)N2CCOCC2)[C@@]31C (some centres undefined)	-4%	0.2
C[C@H](CO)N1C[C@H](C)[C@@H](CN(C)Cc2ccc(Oc3ccccc3)cc2)OCc2cnnn2CCCC1=O	-2%	0.8&2.8
C[C@@H]1CN([C@@H](C)CO)S(=O)(=O)c2ccc(C#CC(C)(C)O)cc2O[C@H]1CN(C)C(=O)C1CCCCC1	1%	0.6&4.3
Cc1ccccc1CN(C)C[C@@H]1OCc2cnnn2CCCC(=O)N([C@@H](C)CO)C[C@H]1C	-1%	0.8&-6.5
CCOC(=O)N1CCc2cc(OC)c(OC)c3c2c1cc1cc(OC)c(OC)cc13	3%	17
COc1cccc(NC(=O)COC(=O)C2CC(=O)N(c3ccc(C)cc3)C2)c1 (centres undefined)	-5%	0.1
Nc1ccc(S(=O)(=O)Nc2nccs2)cc1N=Nc1ccccc1[N+](=O)[O-]	12%	1.1
Cn1c(=O)c2c(-c3ccccc3)n(-c3ccccc3N)cc2n(C)c1=O	-6%	-3.3
Cn1c(N)c(C(=O)COC(=O)Cc2ccc(F)cc2)c(=O)n(C)c1=O	-4%	0.8
CN(NC(=O)NN(C)C(=O)c1ccccc1)C(=O)c1ccccc1	-2%	0.8
Cc1c(Cl)ccc2c(C(O)CBr)cc(-c3ccccc3)nc12 (centres undefined)	-3%	-3.0
CC(c1ccccn1)C(C)(O)C(C)c1ccccn1 (centres undefined)	-4%	6.6
O=C1N[C@@H](Cc2ccccc2)C(=O)N2CCCC12 (some centres undefined)	-5%	4.2
O=C(Cn1cc(F)c(=O)[nH]c1=O)c1ccco1	4%	-1.3
O=C1NC(=O)C(=Cc2ccccc2)N1	-4%	2.7
Cc1ccc(N(O)C(C)(C)C)cc1	-6%	6.7
OCCN1CCN(CCO)C1=S	-2%	-1.9

Additional results:
SMILES	Vif TR-FRET	MLL AF4-AF9 inh
O=C1NC(c2ccccc2)N=C2Oc3ccccc3C=C12 (centres undefined)	-9%	-1.2
CCC(O)(Cc1ccccn1)Cc1ccccn1	-3%	7.7
CC(=O)C1CCC2C3CCC4=CC(=O)CCC4(C)C3(Br)C(=O)CC12C (centres undefined)	33%	-12
CCCCN1C(=O)C(CC(=O)NC2CCCC2)CC(C(=O)N(C(C)C)C(C)C)=C1C (centres undefined)	6%	-1.4
CC(=O)c1cc(C)c(OC(=O)c2ccccc2)c(C)c1	7%	-3.3
CN(C)S(=O)(=O)n1cc(/C=C(\NC(=O)c2ccccc2F)C(=O)NCCN2CCOCC2)c2ccccc21	-1%	-7.0
CC(=O)N(c1ccccc1)c1nc2ccccc2s1	-2%	-6.1
CCOC(=O)C1=C(C(=O)OCC)N(Cc2ccccc2)CCC1=O	5%	-0.9
O=C(CCNC(=O)c1ccc(Cl)cc1)NCC(c1ccco1)N1CCCC1 (centres undefined)	-6%	-0.6
CN(c1ccc(F)cc1)S(=O)(=O)c1ccc(Cl)c(C(=O)NCC2CCCO2)c1 (centres undefined)	-7%	1.2
O=C(O)c1ccccc1C=NNc1ccc([N+](=O)[O-])cn1	-1%	-1.3
CCOc1ccc(CCN2C(=S)N([C@@H](CC(C)C)CN3CCCC3CN3C(=S)NC[C@@H]3Cc3ccc(O)cc3)C[C@@H]2CC(C)C)cc1 (some centres undefined)	2%	1.8
COc1ccc(CNC(=O)C2CCN(S(=O)(=O)c3ccc(N4CCCC4=O)cc3)CC2)cc1	29%	-2.0
C[C@@H](O)CNC(=O)c1[nH]cnc1C(=O)Nc1cccc(Cl)c1	3%	-1.8
COc1ccc(NC(=O)N(C)C[C@@H]2OCc3cn(nn3)CCCC(=O)N([C@H](C)CO)C[C@H]2C)c(OC)c1	2%	-0.9&1.8
C[C@]12c3[nH]c4cc(-c5ccco5)ccc4c3CCN1C(=O)[C@@H](CC(=O)NCCc1ccccn1)C[C@@H]2C(=O)N1CCOCC1	4%	2.9
CC1C(=O)N(Cc2cn(CC3CCCCC3)nn2)CCS(=O)(=O)N1Cc1ccc(-c2cccc(CO)c2)cc1 (centres undefined)	-4%	0.5
Cc1cccc(-c2ccc3c(c2)C2CC3CCN2)c1 (centres undefined)	6%	3.7
O=C(NC1CC1(c1ccccc1)c1ccccc1)c1ccccc1 (centres undefined)	-5%	-2.7
COc1cc(C)ccc1OCc1cc(C(=O)NC(c2ccccn2)C(F)(F)F)no1 (centres undefined)	14%	-2.4
O=C1CC(=O)N2CCSC2=N1	-3%	-12
Cn1cnc2nc(Cl)nc(Cl)c21	6%	-1.1
COc1ccc2c([N+](=O)[O-])c(N3CCOCC3)[nH]c2c1	8%	-3.8
CC(=O)c1ccc(OCC(=O)Nc2nnc(C3CC3)s2)cc1	-10%	0.1
CCOc1ccccc1C(O)C1=CC(=O)c2ccccc2C1=O (centres undefined)	7.6µM*	3.7
CCN(CC)S(=O)(=O)c1cccc(C(=O)NCC2(N3CCOCC3)CCCCC2)c1	0%	2.6
CC(=O)N1C[C@H]2CON(C)[C@H]2C[C@H]1c1cccc(-c2ccccc2)c1	-4%	-2.5
NC(=O)C(CCc1nc2ccccc2[nH]1)NS(=O)(=O)c1ccccc1 (centres undefined)	2%	-5.0
N#CC(C#N)c1ccnc2ccccc12	-6%	0.5
O=C1C=C(c2ccccc2)C(c2ccccc2)C1 (centres undefined)	0%	-1.7
O=C(Nc1cc(F)ccc1F)c1ccc2c(=O)n3c(nc2c1)CCC3	-3%	0.1
CC1CCN(S(=O)(=O)c2ccc(NC(=O)CCNC(=O)c3ccc(Cl)cc3)cc2)CC1	-1%	2.8
CC12CC(O)C3C(CCC4=CC(=O)CCC43C)C1CCC2=CCO (centres undefined)	-2%	-4.5
CN(C)N1C(=O)c2c(Cl)c(Cl)c(Cl)c(Cl)c2C1=O	3%	-1.3
CCc1ccccc1OCC(=O)Nc1cccc(S(=O)(=O)N2CCCC2)c1	1%	-4.1
COC(=O)[C@]1(C)N[C@H](CN(C)C(=O)c2ccc(C(C)(C)C)cc2)[C@@H]2C(=O)N(Cc3ccccc3)C(=O)[C@@H]21	1%	2.1
CC12CCC(C(=O)C1)C1(C)CCCC(=O)C21 (centres undefined)	9%	0.6
CCOC(=O)CN1CC(C)(C)N(CC(=O)OCC)CC1(C)C	-5%	-3.9
O=C(O)c1ccc([N+](=O)[O-])cc1-c1cc([N+](=O)[O-])ccc1C(=O)O	-3%	2.2
CCCCN(C(=O)C1CCCC1)c1c(N)n(CCC)c(=O)[nH]c1=O	-9%	3.1
COc1ccc(CCC(=O)Nc2ccc(S(=O)(=O)N3CCOCC3)cc2)cc1OC	6%	-2.5
O=C(CSc1nnc2ccccn12)NC(=O)c1cccc([N+](=O)[O-])c1	-4%	3.1
COc1cc(C(C)n2nnc3ccccc32)ccc1O (centres undefined)	-1%	-1.3
COc1ccc(S(=O)(=O)Nc2ccc(-n3cnnn3)cc2)cc1Br	-6%	-0.8
COCCCN(Cc1cc(OC)c(OC)c(OC)c1)C(=S)Nc1cccc(SC)c1	8%	6.5

Record cards, as listed above. Order of screens: Vif TR-FRET, MLL AF4-AF9 inh
CC1CCN(S(=O)(=O)c2ccc(NC(=O)CCNC(=O)c3ccc(Cl)cc3)cc2)CC1 as listed: -1%, 2.8
O=C(Nc1cc(F)ccc1F)c1ccc2c(=O)n3c(nc2c1)CCC3 as listed: -3%, 0.1
COc1ccc(S(=O)(=O)Nc2ccc(-n3cnnn3)cc2)cc1Br as listed: -6%, -0.8

Additional entries
SMILES	Vif TR-FRET	MLL AF4-AF9 inh
CC(C)=CCC/C(C)=C/CNC(=O)C[C@H]1C[C@H](C(=O)N(C(C)C)C(C)C)[C@@]2(C)c3[nH]c4cc(-c5ccco5)ccc4c3CCN2C1=O	-8%	-4.9
COc1cc(C2Oc3ccccc3C=C2[N+](=O)[O-])cc(OC)c1OC (centres undefined)	3%	19
CN(Cc1ccccc1)S(=O)(=O)c1ccc(Cl)c(C(=O)N2CCOCC2)c1	-5%	-0.8
C=C1C(=O)OC2C1C(OC(=O)C(C)=CC)CC(=C)C1C(O)C3OC3(C)C21O (centres undefined)	8%	-3.0
CC(C)(O)CN(C(=O)c1ccccc1)C1CCCCC1	-9%	-1.6
O=C(O)c1ccccc1Cc1ccc2c(c1)CCCC2	1%	-3.9
COc1cc(Cl)ccc1OCc1cc(C(=O)N2CCN(C3CCCCC3)CC2)no1	-13%	0.4
O=CN/C=C/c1cccc(O)c1	-10%	-0.4
COc1ccc(C=CC(=O)c2c(OC)cc(OC)c(OC)c2O)cc1	-7%	-2.8
CC(C)CC1C(=O)N(Cc2cn(CC3CCCCC3)nn2)CCS(=O)(=O)N1Cc1ccc(-c2ccc(Cl)cc2)cc1 (centres undefined)	1%	-2.2
CN(C(=O)c1cccc(NC(=O)Cc2ccc(NC(=O)C3CCCN(S(=O)(=O)c4cccc([N+](=O)[O-])c4)C3)cc2)c1)C1CCC1 (centres undefined)	2%	-1.1
O[C@@H]1C[C@H](c2ccc(Cl)cc2)N(Cc2cccs2)C[C@H]1n1cc(C2CC2)nn1	4%	0.4

Only part of the results is shown; the hit share may differ from the screen's.
